KCNQ2 enhance – potentiators of rat KCNQ2 potassium channel; Potassium voltage-gated channel subfamily KQT member 2 (Rattus norvegicus), O88943; CHO-K1 KCNQ2, FluxOR thallium flux fluorescence; hits give high values; B-score at 10 µM; 0.54% of 310,000 active;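 active means fluorescence ratio B-score at least 3 SD of library B-scores, with initial fluorescence B-score within 3 SD, cut at about 5.3 in these data; same plate scores as AID 2156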;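 further: B-score of peak minus minimum over baseline fluorescence ratio after K+ and Tl+ stimulus; positive B-score means potentiation of KCNQ2 with more thallium influx and brighter signal; only the inactives scoring about 0 or higher are listed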
Target sequence (O88943 whole entry, looked up): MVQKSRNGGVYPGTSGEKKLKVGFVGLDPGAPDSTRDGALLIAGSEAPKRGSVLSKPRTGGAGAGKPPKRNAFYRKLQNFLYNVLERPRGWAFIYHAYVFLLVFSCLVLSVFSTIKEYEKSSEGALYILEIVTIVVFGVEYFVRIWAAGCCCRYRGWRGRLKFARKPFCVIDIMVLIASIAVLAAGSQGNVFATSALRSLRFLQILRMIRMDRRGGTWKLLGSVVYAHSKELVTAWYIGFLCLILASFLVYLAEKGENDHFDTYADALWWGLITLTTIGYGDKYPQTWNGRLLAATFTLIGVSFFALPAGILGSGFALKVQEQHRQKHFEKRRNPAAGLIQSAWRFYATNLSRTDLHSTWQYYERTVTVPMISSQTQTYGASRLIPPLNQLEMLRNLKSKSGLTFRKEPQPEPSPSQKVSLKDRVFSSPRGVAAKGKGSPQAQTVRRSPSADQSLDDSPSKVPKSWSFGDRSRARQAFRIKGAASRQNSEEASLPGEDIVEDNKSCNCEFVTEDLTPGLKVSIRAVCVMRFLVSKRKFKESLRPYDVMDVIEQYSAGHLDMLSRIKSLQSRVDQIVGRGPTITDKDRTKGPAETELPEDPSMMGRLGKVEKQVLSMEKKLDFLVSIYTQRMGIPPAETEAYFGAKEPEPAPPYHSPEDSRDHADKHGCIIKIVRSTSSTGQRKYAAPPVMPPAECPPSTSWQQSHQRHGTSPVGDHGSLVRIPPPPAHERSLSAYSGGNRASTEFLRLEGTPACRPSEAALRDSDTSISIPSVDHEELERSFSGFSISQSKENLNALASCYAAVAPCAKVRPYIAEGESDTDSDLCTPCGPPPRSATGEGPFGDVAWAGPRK
KCNQ2 enhance baseline – also measured in KCNQ2 enhance; calls as there; B-score; compound at 10 µM; measured here: initial fluorescence intensity artifact check;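 brightness before thallium and not channel activity; 0 = typical well and far values either way flag optical interference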
Numbers without * were called inactive.

SMILES | KCNQ2 enhance | KCNQ2 enhance baseline
CC1(C)CC(=O)C2=C(C1)N(C1CCCCC1)C(=O)C2(O)C(F)(F)F (centres undefined) | 2.53 | 0.05
CCOC(=O)c1cccc(NC(=O)c2cc(C)nn2-c2ccccc2)c1 | 0.25 | -1.18
CC(C)CC(OC(=O)c1cccs1)C(=O)NCC1CCCO1 (centres undefined) | 1.02 | 0.51
CC1CN(CCCCOc2ccc(C(C)C)cc2)CC(C)O1 (centres undefined) | 0.03 | -1.35
O=C(CSc1ccccc1[N+](=O)[O-])NC1CCS(=O)(=O)C1 (centres undefined) | 0.6 | 0.23
O=C(COC(=O)Cc1ccc(Cl)cc1)Nc1ccc2[nH]c(=O)[nH]c2c1 | 0.56 | -0.54
COc1ccc(S(=O)(=O)N2CCC(C(=O)NCCCN3CCOCC3)CC2)cc1 | 0.13 | -0.79
COc1ccc(-c2ncncc2-c2ccccc2)c(O)c1 | 0.12 | 0.07
FC(F)(F)c1cc(-c2ccc(Cl)cc2)nc2ncnn12 | 0.41 | -1.25
CCOc1ccc(CCNC(=O)CN2C(=O)NC3(CCCC3)C2=O)cc1OCC | 0.64 | -0.65
CCOC(=O)N1CCN(C(=O)COc2ccc(S(=O)(=O)NC(C)C)cc2)CC1 | 1.24 | -0.34
CCC(C)N(C)C1CCN(C(=S)Nc2ccc(OC)cc2)CC1 (centres undefined) | 0.8 | 0.17
CC(=O)Nc1ccc(-n2c(C)nc(=O)c(-c3ccccc3)c2C)cc1 | 1.34 | 1.75
COc1ccc(CCNC(=O)C2CC(=O)N(C3CCCC3)C2)cc1OC (centres undefined) | 0.05 | 0.76
CC(C)(C)c1ccc(C(=O)NCC(=O)N2CCNC(=O)C2)cc1 | 0.26 | 0.12
Cn1c(=O)cc(SCC(=O)N2CCCC2)c2cc(Cl)ccc21 | 0.02 | 0.05
CCCC[n+]1ccn(-c2nc3ccccc3nc2[N-]S(=O)(=O)c2ccc(C)cc2)c1 | 0.33 | -1.14
C=CCN1C(c2ccccc2)=CS/C1=C(\C#N)c1nnc2n1CCCCC2 | 0.1 | 2.17
Cc1ccc(NC(=O)CSc2ccc(-c3ccccn3)nn2)cc1 | 1.06 | 1.92
CCCCN1C(=O)/C(=C2/Sc3ccc(OC)cc3N2CC)SC1=S | 0.11 | -0.18
CCOc1c2ccc(C(=O)NCc3ccco3)cc2nn1CCOC | 0.55 | 1.04
CC(=O)Nc1ccc(NC(=O)c2ccc(NC(=O)c3ccccc3)cc2)cc1 | 0.69 | 0.3
CCOC(=O)CN1C(=O)N[C@@H](c2cccs2)C(C(C)=O)=C1C | 1.15 | -0.6
COc1ccc(OC)c(/C(O)=C/C(=O)C(=O)Nc2ccccc2OC)c1 | 0.3 | -0.13
O=C(CCCCn1c(=O)[nH]c2ccccc2c1=O)NCCc1c[nH]c2ccccc12 | 1.12 | 0.06
O=C(Nc1ccccc1Cl)C1C2CCC3C(CCC21)C3(Cl)Cl (centres undefined) | 1.02 | -0.92
CCCn1c(NCCO)nc2ccccc21 | 1.63 | -3.78
CCOc1cc(N2CCOCC2)c(OCC)cc1NC(=O)COC(=O)COc1cc(C)cc(C)c1 | 0.01 | 1.2
CC(=O)c1ccc(OCC(O)CN2CCN(CC(O)COc3ccc(C(C)=O)cc3)CC2)cc1 (centres undefined) | 1.63 | 0.68
O=C(NCN1CCN(c2ccccc2)CC1)c1cnccn1 | 0.67 | -0.57
COc1ccc(CN2C(=O)CCC2(C)C(=O)NC2CCCC2)c(OC)c1 (centres undefined) | 0.05 | -0.17
Cn1c(/C(C#N)=C(\O)c2ccc(S(=O)(=O)N3CCCCC3)cc2)nc2ccccc21 | 0.81 | -1.09
Cc1onc(-c2ccccc2)c1C(=O)Nc1nc2c(s1)C(=O)CC(C)(C)C2 | 0.12 | -2.11
Cc1ccc(S(=O)(=O)c2nc(Nc3ccccc3C#N)sc2Cl)cc1 | 1.12 | 1.97
O=C1Nc2ccccc2C12Nc1ccccc1-c1nc3ccccc3n12 (centres undefined) | 0.82 | -2.51
O=c1cc(N2CCOCC2)[nH]c(=O)n1-c1ccc(Br)cc1 | 0.83 | 0.9
Cc1oc(-c2cccc(F)c2)nc1CN1CCCCC1CCn1cccn1 (centres undefined) | 0.04 | -1.19
N=c1sccn1CC(=O)N1N=C(c2ccc(Cl)cc2)CC1c1ccco1 (centres undefined) | 2.04 | 0.01
CC(=O)c1ccc(NC(=O)[C@@H]2CCCN2C(=O)OC(C)(C)C)cc1 | 1.46 | -0.81
CCSc1nc2ccccc2n1CC(=O)N1CCOCC1 | 1.3 | -1.11

Entries of single compounds from above. Order of values: KCNQ2 enhance | KCNQ2 enhance baseline
Shown for COc1ccc(-c2ncncc2-c2ccccc2)c(O)c1 → 0.12 | 0.07
Shown for O=C(Nc1ccccc1Cl)C1C2CCC3C(CCC21)C3(Cl)Cl (centres undefined) → 1.02 | -0.92

Continued:
SMILES | KCNQ2 enhance | KCNQ2 enhance baseline
O=C(O)CSCCOc1ccc(OCCSCC(=O)O)cc1 | 0.85 | 0.94
Cc1ccc(NC(=O)CSc2nc(N)cc(=O)[nH]2)cc1Cl | 1.57 | -1.22
COc1ccc(-c2cc(-c3n[nH]c(=S)n3-c3ccccc3Cl)[nH]n2)cc1 | 1.42 | -1.73
CC(C)(C)c1ccc(C(=O)NNC(=O)Cc2ccccc2)cc1 | 1.46 | -0.01
CC1CCc2c(C(=O)Nc3cccc(-c4nn[nH]n4)c3)csc2C1 (centres undefined) | 1.69 | -0.61
CCOC(=O)c1oc2nc(CC(C)C)c3c(c2c1N)CCCC3 | 0.89 | 0.13
Cc1cnn(Cc2cccnc2)c1N | 1.46 | -0.51
CCOc1ccccc1NC(=O)COC(=O)COc1c(Cl)cc(Cl)c2ccc(C)nc12 | 1 | 1.27
O=C(CSc1n[nH]c(=O)n1Cc1ccco1)Nc1ccccc1Cl | 0.75 | 0.15
COc1cccc(/C(O)=C2/C(=O)C(=O)N(Cc3cccnc3)C2c2ccco2)c1 (centres undefined) | 0.02 | 1.18

4 entries from above, with values under each structure:
Second line of a record: KCNQ2 enhance	KCNQ2 enhance baseline
> Cn1c(/C(C#N)=C(\O)c2ccc(S(=O)(=O)N3CCCCC3)cc2)nc2ccccc21
    0.81	-1.09
> Cc1onc(-c2ccccc2)c1C(=O)Nc1nc2c(s1)C(=O)CC(C)(C)C2
    0.12	-2.11
> Cc1ccc(S(=O)(=O)c2nc(Nc3ccccc3C#N)sc2Cl)cc1
    1.12	1.97
> O=C1Nc2ccccc2C12Nc1ccccc1-c1nc3ccccc3n12 (centres undefined)
    0.82	-2.51

(further entries)
SMILES | KCNQ2 enhance | KCNQ2 enhance baseline
CCOC(=O)C1=C(C)NC(C)=C(C(=O)OCC)C1c1cccs1 | 0.11 | 0.22
Cc1cccc(-c2nnc(SCc3cc(=O)[nH]c4ccccc34)n2C)c1 | 2.23 | -0.16
COC(=O)N1N=C(c2ccc(Br)cc2)CC1(O)C(F)(F)F (centres undefined) | 0.54 | 0.01
Nc1n[nH]c(CO)n1 | 0.78 | -0.21
Cc1ccc(NS(=O)(=O)c2cccc(C(=O)N3CCCC(C)C3)c2)cc1 (centres undefined) | 1.2 | 0.05
COc1cc2c(cc1OC)CN(C(=S)NC(=O)c1ccccc1)CC2 | 0.01 | -0.78
COc1ccccc1CCNS(=O)(=O)c1c(C)n(C)c(=O)n(C)c1=O | 0.64 | -0.11
CC(C)(O)C#Cc1ccc(CN2CCN(C3CCCCC3)C(CCO)C2)cc1 (centres undefined) | 0.24 | -0.98
CCOC(=O)c1oc2cc(OCC(N)=O)ccc2c(=O)c1-c1ccc(OC)c(OC)c1 | 0.58 | 1.9
C=CCNC(=S)NNC(=O)c1ccccc1 | 1.02 | -0.91
O=C(NCCc1ccc(Cl)cc1)C1CCN(S(=O)(=O)N2CCC3(CC2)OCCO3)CC1 | 2.5 | -0.87
COc1ccc(CNC(=O)CCc2c(C)nc3cc(-c4ccccc4OC)nn3c2C)cc1 | 0.16 | 1.04
O=C(CSc1nc(=O)n2ccccc2n1)N1CCCc2ccccc21 | 0.04 | 0.07
Cc1ccc(CC(=O)NNC(=O)c2ccncc2)cc1C | 1.12 | -1.93
COc1cc(Cl)ccc1NC(=S)N(CCCN1CCOCC1)Cc1cn(C)c2ccccc12 | 0.25 | 2.41
CC(=O)N1CCc2cc(S(=O)(=O)NCCC(=O)NCCc3ccc(Cl)cc3)ccc21 | 0.21 | -0.84
CC(=O)Nc1nonc1NC(=O)CSc1nc2ccccc2o1 | 0.12 | 0.2
C/C(=N\NC(=O)c1cc(C2CC2)nc2ccccc12)c1ccc(C)s1 | 0.35 | 0.79
Nc1ccc(C(=O)OCC(=O)NC2CC2)cc1[N+](=O)[O-] | 0.75 | -0.89
CSc1nc2ccccc2n1CC(=O)N1CCCCC1 | 0.06 | 2.08

An excerpt of these results, in markdown.
| Structure | KCNQ2 enhance | KCNQ2 enhance baseline |
| --- | --- | --- |
| COc1ccc(CNC(=O)CCc2c(C)nc3cc(-c4ccccc4OC)nn3c2C)cc1 | 0.16 | 1.04 |
| O=C(CSc1nc(=O)n2ccccc2n1)N1CCCc2ccccc21 | 0.04 | 0.07 |
| Cc1ccc(CC(=O)NNC(=O)c2ccncc2)cc1C | 1.12 | -1.93 |
| COc1cc(Cl)ccc1NC(=S)N(CCCN1CCOCC1)Cc1cn(C)c2ccccc12 | 0.25 | 2.41 |
| CC(=O)N1CCc2cc(S(=O)(=O)NCCC(=O)NCCc3ccc(Cl)cc3)ccc21 | 0.21 | -0.84 |

Continuation.
SMILES | KCNQ2 enhance | KCNQ2 enhance baseline
CC(=O)N(C)c1nnc(-c2cnccn2)s1 | 0.61 | -0.39
Cc1cccc(-c2nnc(SCCC(=O)N3CCOCC3)o2)c1 | 0.5 | 0.76
C=Cn1c(C(=O)O)cc(CC)c1-c1ccccc1 | 1.06 | -0.89
Cc1cccc(NC(=O)CSc2nnc([C@@H]3CCCN3C(=O)OC(C)(C)C)o2)c1C | 0.13 | -0.01
CCOC(=O)c1c(NC(=O)Cn2ccsc2=N)sc(C)c1C | 0.06 | 2.13
CCOC(=O)N1CCN(C(=O)c2ccc(CN(c3ccc(C)c(C)c3)S(C)(=O)=O)cc2)CC1 | 0.34 | -1.31
COc1ccc(CN2CCCC(C(=O)N3CCCCC3)C2)c(OC)c1 (centres undefined) | 0.02 | 0.01
O=C(CN1CCCc2ccccc21)Nc1ccc(F)cc1[N+](=O)[O-] | 0.15 | -0.99
Cc1cc(C)cc(NC(=S)N2CCN(c3ncccn3)CC2)c1 | 1.19 | 1.23
O=C(Nc1nc2ccccc2[nH]1)C1CCN(C(=O)c2ccc(F)cc2)CC1 | 0.26 | 1.66
Cc1sc2nc(SCC(=O)OC(C)C)n(C)c(=O)c2c1C | 0.48 | -1.15
Cc1ccccc1NC(=O)CCS(=O)(=O)c1cccc2nonc12 | 0.91 | -2.75
COc1ccc(CC(=O)Nc2ccc(S(=O)(=O)Nc3ncccn3)cc2)cc1 | 1.15 | 0.04
Cn1c2c(c(=O)n(C)c1=O)C(c1ccccc1F)C(C#N)=C(N)O2 (centres undefined) | 0.64 | 0
O=C(/C=C/c1ccccc1)c1cc(Br)ccc(=O)c1O | 0.7 | -0.68
COc1ccc(S(=O)(=O)N2CCC(C(=O)NCCc3ccccc3)CC2)cc1OC | 0.59 | -1.91
CCN(CC)S(=O)(=O)c1ccc(C(=O)N2CCN(CCN3C(=O)c4cccc5cccc(c45)C3=O)CC2)cc1 | 0.01 | 0.9
COc1cccc(NC(=O)NCc2ccc(F)cc2)c1 | 3.11 | -2.03
Cc1ccnc(N2CCCC(C(=O)NCc3cccs3)C2)n1 (centres undefined) | 0.22 | 1.1
COC(=O)C1=C(C)N(c2ccc(S(N)(=O)=O)cc2)C(=O)C1 | 1.18 | -0.63
O=C(Oc1ccc2ccc(O)cc2c1)C1CCCCC1 | 0.02 | 0.42
CCOc1ccc(OCc2cccc(C(=O)N3CCOCC3)c2)cc1 | 0.03 | -0.53
CCc1c(C)nc(SCC(=O)Nc2ccc3c(c2)OCCO3)[nH]c1=O | 0.23 | -0.79
COc1cc(/C=C2/SC(=NCc3ccccc3)N(Cc3ccccc3)C2=O)ccc1O | 0.82 | -0.24
O=C1c2cccc3cccc(c23)C(=O)N1c1nncs1 | 1.78 | -2.79
COc1cccc(C(=O)NCCS(=O)(=O)N2CCC(C)CC2)c1 | 0.13 | -2.04
COc1ccc(C(=O)N2CCC(C(=O)Nc3ccccc3OC)CC2)cc1 | 1.15 | -1.33
CCCN1CCC(=O)N([C@H](CSc2ccc(OC)cc2)Cc2ccccc2)CC1 | 0.93 | 1.27
Cc1ccc(CN2CCN(Cc3ccccn3)CC2CCO)cc1 (centres undefined) | 0.28 | 0.88
CCCCCC(=O)Nc1nnn(CCC)n1 | 1.63 | -0.79
COc1ccc(CCN(C)C(=O)c2cc(S(=O)(=O)N3CCCCC3)ccc2Cl)cc1OC | 0.03 | 2.26
C/C=C/c1ccc(OCC(=O)OCc2csc(Nc3ccc(C)cc3)n2)c(OC)c1 | 1.23 | -0.26
C#CCn1c(=NC(=O)CN2C(=O)CCC2=O)sc2cc(S(N)(=O)=O)ccc21 | 0.63 | -1.45
Cc1nnc(SCC(=O)Nc2cccc(Cl)c2)n1CC1CCCO1 (centres undefined) | 0.67 | -1.82
CCN(CC)C(=O)Cn1ccc(NC(C)=O)nc1=O | 0.18 | -1.72
Nc1c(N=Nc2ccccc2F)c(=O)[nH]n1-c1ccccc1 | 2.04 | 1.22
CC(C)N(Cc1nccn1C)C(=O)CCc1nnc(CCCc2ccccc2)o1 | 0.52 | -0.24
CC(=NCCN1CCOCC1)C1=C(O)c2ccccc2C1=O | 1.84 | -0.7
Cc1cc(Cl)c2oc(C(=O)N3CCCCC3CCN3CCCC3=O)c(C)c2c1 (centres undefined) | 0.23 | -0.59
COCCNC(=O)c1cccc(OC2CCN(Cc3cccc(C(C)=O)c3)CC2)c1 | 0.64 | 1.01
COc1cccc(OCc2nnc(SC)n2C)c1 | 0.24 | -1.16
O=C(CN1CCCc2ccccc21)N/N=C/c1ccc(F)cc1F | 0.07 | 0.85
N#CCCCSc1nnnn1-c1cccc(Cl)c1 | 0.05 | 3.28

Some of the compounds tested. The share of hits here may be higher or lower than overall.
